H5N1 antiviral: MDCK cell protection from H5N1 avian flu | 0.07% of 96,000 active | inhibition, % at 50 µM | cytopathic effect, luminescence, 72 h; stronger effect = higher value; no value below 0 was filed and about half of the inactive calls have no number; reference of the scale not given here; in the data active means inhibition above about 25%
* hit, by the source's call; i = inactive. This is a subset; the hit share may differ from the screen's.

SMILES	H5N1 antiviral
CCOC(=O)c1c(C2CC2)csc1NC(=O)CSCc1c(C)noc1C	i
Cc1cc(Cl)ccc1OCCCC(=O)NO	i
Cc1cc(NS(=O)(=O)c2ccc(NC(=O)C(C)Oc3ccc(Cl)cc3)cc2)no1 (configuration not stated)	i
CC(=O)N1CCC(Nc2ccc(C)cc2)CC1	0.9
COc1ccc2c(c1)CCc1c(C(=O)N3CCCCCC3)noc1-2	0.9
Cc1cc(-c2ccco2)n(CC(=O)NCc2ccccc2)n1	1.0
CCC1(C)Cc2c(c(=O)n(-c3ccccc3)c3ncnc(N)c23)CO1 (configuration not stated)	0.6
CC(C)Cc1[nH]c(=O)c(C#N)c2c1CCC2	0.7
Cc1cc(NC(=O)c2cc3n(n2)C(C(F)(F)F)CC(c2ccco2)N3)no1 (configuration not stated)	1.4
CCOc1ccc(NC(=O)c2nn(C)cc2Br)cc1	i
Nc1nc(-c2ccco2)cs1	0.5
COC(=O)NC1(C(F)(F)F)C(=O)NC(C)=C1C(=O)OC (configuration not stated)	i
COc1ccc(C2C(C#N)=C(C)NC3=C2C(=O)CC(C)(C)C3)cc1 (configuration not stated)	1.1
Oc1ccc(Br)cc1-c1cc(-c2ccco2)[nH]n1	5.4
CC1CC(NC(=O)CCn2c(=O)oc3ccccc32)CC(C)(C)C1 (configuration not stated)	0.6
COc1ccc(-c2nn(C)c(=O)c3ccccc23)cc1CNC(=O)c1ccco1	0.9
FC(F)(F)c1cc(Oc2ccc(Cl)cc2)nc(-c2ccccn2)n1	0.5
CC(C)(C)c1[nH]nc2c1C(c1ccoc1)C(C#N)=C(N)O2 (configuration not stated)	i
COc1ccc(NC(=O)CCC(=O)OC(C(=O)c2ccccc2)c2ccccc2)cc1 (configuration not stated)	i
O=C(O)[C@H]1CCC(=O)N1Cc1ccco1	0.1
CN(C)c1nc(Oc2ccc(=O)[nH]n2)nc(N2CCCCC2)n1	0.5
Cc1c(N2C(=O)c3ccc(Br)cc3C2=O)c(=O)n(-c2ccccc2)n1C	0.1
COC(=O)CC(NC(=O)c1ccc(C)cc1)c1ccccc1 (configuration not stated)	0.6
COC(=O)C1=C(C)C(c2cccs2)NC(=O)N1C (configuration not stated)	i
Cc1ccc(C2SCC(=O)N2Cc2cn3ccsc3n2)o1 (configuration not stated)	i
Cc1ccc(S(=O)(=O)NCCN2CCOCC2)cc1C	0.6
COC(=O)CCC/C=C1/SCC(NC(=O)c2ccccc2)C1=O (configuration not stated)	0.1
O=C(NCCCN1CCOCC1)c1cn(-c2ccccc2)nc1-c1cccs1	i
Cc1occc1C(=O)N1CCN(C(c2ccccc2)c2ccccc2)CC1	0.5
COc1ccc(OC)c(N2Cc3cc(C)c(C)cc3C2)c1	0.7
Cc1c(C(=O)N2CCN(c3ccc(C(F)(F)F)cn3)CC2)oc2ccccc12	0.0
COCCCNC(=O)c1ccc(NS(C)(=O)=O)cc1	0.7
O=C(Nc1ccccc1C(=O)NC(Cc1ccccc1)C(=O)NC1CCCCCC1)c1ccccc1 (configuration not stated)	i
Cc1ccc(S(=O)(=O)NC2=C(N3CCN(c4ccccc4F)CC3)C(=O)c3ccccc3C2=O)cc1	i
O=C(NCc1ccccc1)c1ccc2c(c1)OCCO2	i
O=C(NCC1CCCO1)c1ccc(NC(=O)C2CC=CCC2C(=O)O)cc1 (configuration not stated)	1.0
Cc1cc(Cl)ccc1OCC(=O)NCCOc1nc(N2CCCCC2)nc(N2CCOCC2)n1	0.4
Cc1cnc(C(=O)Nc2ccccc2C(=O)N2CCOCC2)cn1	1.0
CN(CCO)c1nc(N)c2c(N)nc3c(c2c1C#N)CC(=O)N3C1CCCC1	0.2
NC(=O)c1ccc(-c2ncc(-c3ccccc3)o2)cc1	0.1
Cc1ccc(SCc2cn3c(C)csc3n2)cc1	i
O=C(c1ccc(F)cc1)N1CCN(c2cc(N3CCCCC3)c(F)cc2[N+](=O)[O-])CC1	4.3
CCCOc1cc(CN2CCCCC2)cc(C(C)=O)c1	i
O=C(NCCCc1ccccc1)c1ccccc1	i
CCOC(=O)C1=C(C)NC(C)=C(C(=O)OCC)C1c1sccc1C	i
COc1ccc(NC(=O)C2CCN(S(=O)(=O)c3cccc4cccnc34)CC2)cc1OC	0.1
COc1ccc(-c2csc(N(CC3CCCO3)C(=O)c3ccco3)n2)cc1 (configuration not stated)	i
COc1cc(OC)c(OC)cc1/C=N/N(C)c1ccccc1	i
CC(=O)Nc1nc(C=C(Cl)Cl)cs1	1.7
S=C(Nc1cccc(Cl)c1)Nc1ccccc1Oc1ccccc1	7.2
O=c1[nH]c(=O)n(Cc2ccco2)c(O)c1C=NCc1cccs1	6.6
Cc1ccc(N(CC(=O)NC(C)c2ccccc2)S(=O)(=O)c2cccs2)cc1 (configuration not stated)	i
CCCCn1c(C)c(C(=O)OCC)c2c(CN3CCOCC3)c(O)ccc21	i
O=S(=O)(NCc1ccc(F)cc1)c1cccc(S(=O)(=O)N2CCOCC2)c1	i
Cc1cccc2nc(CSCc3ccco3)cn12	8.2
O=C(Cc1csc(Nc2nc(=S)[nH]c3ccccc23)n1)NCc1cccc(Cl)c1	i
CCOC(=O)C1=C(C)OC(N)=C(C(=O)OCC)C1c1cccnc1 (configuration not stated)	2.5
Cc1ccccc1NC(=O)NCCN1C(=O)C2C3C=CC(C3)C2C1=O (configuration not stated)	2.0
CCn1c(CSc2nc(C)cc(C)n2)nnc1SCC(=O)Nc1cccc2ccccc12	i
COc1cccc(NC(=O)COC(=O)c2nc3nccc(C)n3n2)c1	i
Other entries follow.
SMILES	H5N1 antiviral
CC(=O)c1c(C)[nH]c(C(=O)NC2CCCCC2)c1C	i
CCN(CC)CCCNC(=O)C1CCC(=O)N(c2ccc(OC)cc2)C1c1ccc(F)cc1 (configuration not stated)	i
Cc1ccccc1-c1nc(CS(=O)CC(=O)NCCN2CCN(Cc3ccccc3)CC2)c(C)o1 (configuration not stated)	i
Cc1cc(NC(=O)C2C3C(=O)N(Cc4ccc(Cl)cc4)C(C(=O)NCc4ccccc4)C34C=CC2(C)O4)no1 (configuration not stated)	i
Cc1ccc(OCC(=O)NCc2ccccn2)c(Br)c1	i
Fc1ccc(NC(=S)NN=C2CCCCCC2)cc1	0.4
Cc1ccn2cc(CNS(=O)(=O)c3ccc4c(c3)OCCO4)nc2c1	0.7
Cc1cc(NC(=O)Cn2c(=O)c3c(ncn3CC(C)C)n(Cc3ccccc3)c2=O)no1	0.6
Cc1cc(N2CCC(C(=O)N3CCN(c4cccc(C)c4C)CC3)CC2)n2ncnc2n1	i
C=CCn1c(SCc2nc(N)nc(N3CCCCC3)n2)nnc1-c1ccco1	0.2
Cn1cccc1/C=N/n1c(-c2ccc(Cl)cc2Cl)n[nH]c1=S	1.6
CC(Sc1nnnn1C)C(=O)Nc1ccc(N2CCOCC2)cc1 (configuration not stated)	0.2
O=C1c2ccccc2C(Nc2ccc3c(c2)OCCO3)N1Cc1ccco1 (configuration not stated)	i
CCC(=O)Oc1ccc(C/C(=N\O)c2ccc(O)cc2O)o1	i
O=[N+]([O-])C1=CC=C2C(=NC3(CCCCC3)N2O)C1=NC1CCCCC1	i
OCCNCC1(O)C2CC3CC(C2)CC1C3 (configuration not stated)	0.8
Cc1ccc2cc(CN(Cc3nnnn3Cc3ccco3)CC3CCCO3)c(=O)[nH]c2c1C (configuration not stated)	0.2
Cc1ccc(Cl)cc1NC(=O)c1ocnc1C	0.1
CCCSc1cc(N2CCN(C)CC2)nc(-c2ccc(OC)cc2)n1	i
CCOc1ccc(NC(=O)C2CCN(C(=O)NCc3ccccc3)CC2)cc1	i
CC(C(=O)N1CCC(C(N)=O)CC1)N(c1ccc(Oc2ccccc2)cc1)S(C)(=O)=O (configuration not stated)	i
CCN(CC)S(=O)(=O)c1cccc(C(=O)Nc2ccccc2C(=O)N2CCOCC2)c1	i
CC(C)NS(=O)(=O)c1ccc(OCC(=O)N2CCN(Cc3ccccc3)CC2)c(Cl)c1	4.0
COc1ccc(CC(=O)NCc2ccccc2Cl)cc1S(=O)(=O)N1CCOCC1	i
Nc1nc(Cl)cc(N2CCC(c3cc(-c4ccc(Cl)cc4)n[nH]3)CC2)n1	0.4
NC1=NCc2ccccc21	i
CCc1nc(NCCC(C)C)c(C#N)c2c1CCCC2	0.8
CCSc1nc(C)nc2c1oc1ccccc12	2.8
Cc1ccc(S(=O)(=O)N(C#N)c2nc(C)cc(C)n2)cc1	i
CN1CCN(S(=O)(=O)c2ccc(NC(=O)c3ccc(F)cc3)cc2)CC1	i
Cc1ccccc1Cn1c2ccccc2c2cn[nH]c(=O)c21	i
COC(=O)c1ccc(C2CC(=O)NC3=C2C(=O)CCC3)cc1 (configuration not stated)	0.9
Cn1c(=O)[nH]c(=O)c2[nH]c(CN3CCN(C(=O)c4ccco4)CC3)nc21	0.7
COc1c2occc2c(OC)c2c(=O)cc(C(F)(F)C(F)(F)F)oc12	0.9
O=C(CSc1nc(-c2ccccc2)cc(C(F)(F)F)n1)NCc1ccco1	2.5
CC1CCN(CCOc2cc(Cl)ccc2Cl)CC1	i
Cc1cccnc1NC(=O)C1CCN(S(=O)(=O)c2ccc3c(c2)CCC(=O)N3)CC1	i
CCOc1cc2c(C)cc(=O)oc2cc1Cl	0.6
Nc1ncnc2nc(SCc3ccccc3)[nH]c12	i
O=C1C2Sc3[nH]c(=O)sc3C(c3ccccc3)C2C(=O)N1c1ccccc1 (configuration not stated)	i
Cc1cccc(/C=C2/SC(=O)N(Cc3ccccc3Cl)C2=O)n1	i
CCOC(=O)c1cc(C(C)(C)C)oc1CN	1.3
COc1cccc(NC(=O)CN2CCN(c3ccc(F)cc3)CC2)c1	i
COC(=O)CNC(=O)Cn1ccc2ccccc2c1=O	i
Cn1cccc1Cc1nnc(SCC(=O)Nc2nccs2)n1CCc1ccccc1	i
COc1cc(NC(=O)CSCC(=O)Nc2cccc(C(F)(F)F)c2)c(Cl)cc1Cl	i
Cn1c(CNS(=O)(=O)c2ccc(Cl)cc2)n[nH]c1=S	1.1
CCN1CC2([N+](=O)[O-])C=CC(=O)C([N+](=O)[O-])(C1)C2CC(=O)c1ccccc1 (configuration not stated)	i
COc1ccc(CCNC(=O)C2CCCN(Cc3nc(-c4ccccc4C)oc3C)C2)cc1OC (configuration not stated)	0.4
CCOC(=O)/C=c1\s/c(=C(\C#N)C(=O)NC)n(-c2ccccc2)c1=O	0.2
O=C(NCCN1CCCCC1)Nc1ccc(F)c(Cl)c1	i
CC(C)COC(=O)C1C(=O)CC(C)(O)C(C(=O)OCC(C)C)C1c1cccnc1 (configuration not stated)	2.4
CCOc1cccc(SCc2noc(C(=O)NC(C)C)c2C(=O)O)c1	0.1
Cc1nn(CC(=O)NCc2ccccc2)c(C)c1[N+](=O)[O-]	0.9
O=C(NCCCNCc1ccccc1)c1ccc(/C=N/O)nc1	0.4
Cc1ccc(C(C)C)c(OCC(=O)Nc2ccccc2N2CCN(C)CC2)c1	i
Cc1occc1C(=O)Nc1ccc2c(c1)OCCO2	i
Cc1ccccc1-c1c(C)oc2cc(O)ccc2c1=O	i
Cc1ccc(NC(=O)CC2S/C(=N/c3nccs3)N(C)C2=O)cc1C (configuration not stated)	i
Cc1ccc(C)c(NC(=O)CNS(=O)(=O)c2ccccc2)c1	0.7

Two compounds drawn at random from those above, as already listed:
SMILES	H5N1 antiviral
Cc1ccc(NC(=O)CC2S/C(=N/c3nccs3)N(C)C2=O)cc1C (configuration not stated)	i
Cc1ccc(C)c(NC(=O)CNS(=O)(=O)c2ccccc2)c1	0.7

The results go on:
SMILES	H5N1 antiviral
COc1cccc(/C=N/NC(=O)C(=O)NCc2ccco2)c1O	i
COc1cc(OC)c(NC(=O)CCNS(=O)(=O)c2cc(Br)cnc2N)cc1Cl	i
O=C(NCCOc1ccccc1)C(c1ccccc1)c1ccccc1	1.8
CCOc1ccc(CN=C(N)N=C(N)N)cc1Cl	0.3
CC(C)N1CC(O)=C(c2ccccc2)C1=N	i
CCOC(=O)C1=C(c2ccccc2)NC(SC)=C(C#N)C1c1ccco1 (configuration not stated)	2.9
O=C(Cn1nc(-c2ccc(Cl)cc2)ccc1=O)NCCCN1CCN(Cc2ccccc2)CC1	i
O=C(Nc1nncs1)c1ccccc1NS(=O)(=O)c1cccs1	i
CC(=O)OCCn1c(=O)c2cc3c(=O)n(CCOC(C)=O)c(=O)c3cc2c1=O	i
COc1ccc(-c2cc(C(=O)N3CCN(Cc4ccccc4)CC3)no2)cc1OC	0.6
O=C(NCc1ccccc1)c1c[nH]c2ccc(S(=O)(=O)Nc3ccc4c(c3)OCCO4)cc2c1=O	0.2
COc1ccccc1/C=C1\SC(=S)N(Nc2nc(C)cc(C)n2)C1=O	i
O=C1CCC(=O)N1CNc1ccccn1	i
CCOC(=O)C1CCN(C(c2cc(OC)c(OC)c(OC)c2)c2sc3nc(C)nn3c2O)CC1 (configuration not stated)	0.7
CC1(C)NC(=O)N(CCOCCOc2c(Cl)cc(Cl)cc2Cl)C1=O	0.4

Compounds above that have an NH in an aromatic ring:
SMILES	H5N1 antiviral
CC(C)Cc1[nH]c(=O)c(C#N)c2c1CCC2	0.7
Oc1ccc(Br)cc1-c1cc(-c2ccco2)[nH]n1	5.4
CC(C)(C)c1[nH]nc2c1C(c1ccoc1)C(C#N)=C(N)O2 (configuration not stated)	i
CN(C)c1nc(Oc2ccc(=O)[nH]n2)nc(N2CCCCC2)n1	0.5
O=c1[nH]c(=O)n(Cc2ccco2)c(O)c1C=NCc1cccs1	6.6
O=C(Cc1csc(Nc2nc(=S)[nH]c3ccccc23)n1)NCc1cccc(Cl)c1	i
CC(=O)c1c(C)[nH]c(C(=O)NC2CCCCC2)c1C	i
Cn1cccc1/C=N/n1c(-c2ccc(Cl)cc2Cl)n[nH]c1=S	1.6
Cc1ccc2cc(CN(Cc3nnnn3Cc3ccco3)CC3CCCO3)c(=O)[nH]c2c1C (configuration not stated)	0.2
Nc1nc(Cl)cc(N2CCC(c3cc(-c4ccc(Cl)cc4)n[nH]3)CC2)n1	0.4
Cc1ccccc1Cn1c2ccccc2c2cn[nH]c(=O)c21	i
Cn1c(=O)[nH]c(=O)c2[nH]c(CN3CCN(C(=O)c4ccco4)CC3)nc21	0.7
Nc1ncnc2nc(SCc3ccccc3)[nH]c12	i
O=C1C2Sc3[nH]c(=O)sc3C(c3ccccc3)C2C(=O)N1c1ccccc1 (configuration not stated)	i
Cn1c(CNS(=O)(=O)c2ccc(Cl)cc2)n[nH]c1=S	1.1
O=C(NCc1ccccc1)c1c[nH]c2ccc(S(=O)(=O)Nc3ccc4c(c3)OCCO4)cc2c1=O	0.2

From PubChem
